High-throughput results from PubChem BioAssay.
miR-21 FLuc – raises the signal of a miR-21 reporter. HeLa miR-21 FLuc reporter, luciferase, 48 h. Potency, µM (top dose mostly 38.3 µM), inactives show top-dose reporter change, positive = more light. 340,000 tested, under 10 active; active = well fitted rising curve with a large enough effect; inconclusive = small, poorly fitted or top-dose-only effect; inactive = no such curve, though single readings can be large or run the other way;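 also: % of control where 0% means no effect; miR-21 action dims this reporter so a rising signal means less miR-21 action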
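HeLa cells endogenously expressing miR-21, stably carrying CMV-driven firefly luciferase with a downstream miR-21 binding site, 2000 cells/well. Titrations up to approximately 40 uM, 48 hours; luciferase luminescence read.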
Numbers without * were called inactive; ? = inconclusive. These rows are one share of the data (hit frequency here may not be typical).

No. | miR-21 FLuc | molecule
1 | 2% | Cc1ccc(C)c(Cn2c(=O)n(-c3ccccc3)c(=O)c3c4c(sc32)CCCC4)c1
2 | -46% | CCc1ccc(NC(=O)c2sc3nc(C)c(Cl)c(C)c3c2N)cc1
3 | -1% | CN(C)c1ccc(CN(Cc2ccco2)C(=O)c2ccc(F)cc2)cc1
4 | -2% | CCCNC(=O)c1ccccc1NC(=O)c1nsc2ccccc12
5 | -29% | CCOC(=O)c1ccccc1NC(=O)c1cc2ccc3cccnc3c2[nH]1
6 | 0% | Cc1ccc(NC(=O)C2CCC(CNS(=O)(=O)c3cccc4nsnc34)CC2)c(Cl)c1 (stereo unspecified)
7 | -14% | Cc1ccc2oc(-c3cc(NC(=O)/C=C/c4ccco4)ccc3Cl)nc2c1
8 | -56% | Cc1cccc(C)c1NC(=O)CCCn1c(=O)c2cccn2c2ccccc21
9 | 2% | COc1ccc(CC(=O)NCc2ccc3c(c2)CCN3C(C)=O)cc1
10 | 3% | CCOc1ccc(NC(=O)c2ccc(CN3C(=O)C(C)=C(c4ccc(C)cc4)S3(=O)=O)cc2)cc1
11 | -8% | COc1ccc(NC(=O)CSc2nnc(NC(=O)Nc3ccccc3)s2)c(OC)c1
12 | 4% | CCOc1ccc(C(=O)NCCc2csc(-c3ccc(C(F)(F)F)cc3)n2)cc1OCC
13 | -2% | O=C(c1ccccc1Cl)N1c2ncnn2C2(CCCCC2)[C@@H]2CCCC[C@@H]21
14 | -1% | CCc1cccc(CC)c1NC(=O)CCS(=O)(=O)c1ccc(Br)cc1
15 | -5% | O=C(C1CC1)N1CCc2cc(Br)cc(S(=O)(=O)N3CCN(c4cccc(C(F)(F)F)c4)CC3)c21

Another view of part of the listing above.
7: Cc1ccc2oc(-c3cc(NC(=O)/C=C/c4ccco4)ccc3Cl)nc2c1
  miR-21 FLuc = -14%
8: Cc1cccc(C)c1NC(=O)CCCn1c(=O)c2cccn2c2ccccc21
  miR-21 FLuc = -56%
9: COc1ccc(CC(=O)NCc2ccc3c(c2)CCN3C(C)=O)cc1
  miR-21 FLuc = 2%
10: CCOc1ccc(NC(=O)c2ccc(CN3C(=O)C(C)=C(c4ccc(C)cc4)S3(=O)=O)cc2)cc1
  miR-21 FLuc = 3%

Remaining list, next part.
No. | miR-21 FLuc | molecule
16 | -7% | COc1ccc(C(=O)c2oc3ccccc3c2NC(=O)c2cccc(OC)c2)cc1
17 | -8% | Cc1cccc(CNC(=O)Cn2nc(C)c3nn(-c4ccc(Cl)cc4)c(C)c3c2=O)c1
18 | -3% | CCCN(CCC)C(=O)CSc1nnc2cc(C)c3ccccc3n12
19 | -2% | CC(C)CN(CCNC(=O)c1cn(C)c2ccc(S(=O)(=O)N3CCOCC3)cc2c1=O)CC(C)C
20 | -12% | COc1cc(OC)c(NC(=O)C(C)n2nc(-c3ccc(C)c(C)c3)ccc2=O)cc1Cl (stereo unspecified)
21 | 0% | COc1ccc(OC)c(NC(=O)Cc2coc3ccc(C(C)C)cc23)c1
22 | -5% | COC(=O)c1cc2occc2n1Cc1nc(-c2ccccc2)oc1C
23 | 7% | COc1cccc(NC(=O)CSc2nnc(COc3ccc(Cl)cc3)o2)c1
24 | 12% | COc1ccc(-c2nc(Cn3c(SCc4cccc(C(F)(F)F)c4)nc4cccnc43)c(C)o2)cc1OC
25 | -24% | COc1ccccc1NC(=O)c1cc2c([nH]c1=O)CC(C)(C)CC2=O
26 | -12% | COc1ccc(CNC(=O)Cc2csc3nc(-c4ccc(C)cc4)cn23)cc1
27 | -11% | Cc1cc(C)cc(-n2cnc3cc(C(=O)NCCc4ccccc4)ccc32)c1
28 | 14% | CCOc1ccc(CCNC(=O)Cc2ccc(NC(=O)N3CCSc4ncccc43)cc2)cc1
29 | 16% | CCn1ccc2cc(S(=O)(=O)N3CCC(C(=O)NCc4cccc(Cl)c4)CC3)ccc21
30 | 0% | CCOc1ccc(-n2c(SCC(=O)N3CCOCC3)nc3c([nH]c4ccccc43)c2=O)cc1

Part of the list above, with each value named:
17: Cc1cccc(CNC(=O)Cn2nc(C)c3nn(-c4ccc(Cl)cc4)c(C)c3c2=O)c1
  miR-21 FLuc = -8%

18: CCCN(CCC)C(=O)CSc1nnc2cc(C)c3ccccc3n12
  miR-21 FLuc = -3%

19: CC(C)CN(CCNC(=O)c1cn(C)c2ccc(S(=O)(=O)N3CCOCC3)cc2c1=O)CC(C)C
  miR-21 FLuc = -2%

20: COc1cc(OC)c(NC(=O)C(C)n2nc(-c3ccc(C)c(C)c3)ccc2=O)cc1Cl (stereo unspecified)
  miR-21 FLuc = -12%

Further entries follow:
No. | miR-21 FLuc | molecule
31 | -1% | Cc1ccc(OCC(=O)Nc2ccccc2C(=O)OCc2cc(=O)n3nc(C4CC4)sc3n2)cc1
32 | ? | O=C(C1CC1)N1CCc2cc(Br)cc(S(=O)(=O)Nc3ccc(C(F)(F)F)cc3)c21
33 | 2% | Cc1ccc(Cl)cc1N1CCN(C(=O)c2cccn2-c2nnc(N3CCCC3)s2)CC1
34 | -15% | CCOC(=O)c1cc(-c2ccccc2)n(CC(=O)Nc2ccc(CC)cc2)c1C
35 | -47% | CCOCCCNC(=O)c1ccc2nc(CCc3ccccc3)oc2c1
36 | 0% | CC(C)c1ccc(NC(=O)c2cccc3c2C(=O)N(C2CCCCC2)C3)cc1
37 | 7% | CC1CCN(S(=O)(=O)c2cc(C(=O)N3CCN(c4cccc(Cl)c4)CC3)n(C)c2)CC1
38 | 5% | CCC(=O)N1CCc2cc(Br)cc(S(=O)(=O)CCC(=O)Nc3ccccc3C)c21
39 | -4% | Cc1nnsc1C(=O)Oc1ccc(C#N)cc1
40 | -47% | CCOc1ccc2nc(N(Cc3cccnc3)C(=O)c3ccco3)sc2c1
41 | -5% | COc1ccccc1CNC(=O)C1CCN(S(=O)(=O)c2ccc3[nH]c(=O)ccc3c2)CC1
42 | -13% | CCN(CC)CCCNC(=O)C(C)n1nc(C)n2c(cc3occc32)c1=O (stereo unspecified)
43 | 5% | CCC1CCCCN1C(=O)Cn1c(=O)n(CCCCCC(=O)NCc2ccccc2Cl)c(=O)c2sccc21 (stereo unspecified)
44 | 0% | Cc1ccc([C@H]2Nc3ccc(S(=O)(=O)Nc4cccc(Cl)c4C)cc3[C@H]3C=CC[C@H]32)cc1
45 | -1% | COc1ccc(C2N3CC4(C)CN2CC(c2ccccc2)(C3)C4=O)cc1 (stereo unspecified)
46 | -1% | CCOc1ccc(NC(=O)CCNS(=O)(=O)c2ccc3c(c2)CCCC(=O)N3)cc1
47 | -1% | CCCCOc1cccc(C(=O)Nc2sc3c(c2C(=O)OCC)CCCC3)c1
48 | -5% | O=C(c1cccc(Cl)c1)N(Cc1cccc(F)c1)C1CCS(=O)(=O)C1 (stereo unspecified)
49 | 4% | Cc1ccc(OCCSc2nc3ccccc3n2CC(=O)N2CCOCC2)c(C)c1
50 | -18% | COc1ccc(-c2ccc(CNc3ccc4[nH]c(=O)[nH]c4c3)o2)cc1Cl
51 | 1% | Cc1cccc(C)c1NC(=O)NCCc1c[nH]c2ccccc12
52 | -1% | COc1ccccc1NC(=O)CN1CCCN(S(=O)(=O)c2ccc(Br)cc2)CC1
53 | -3% | O=C(Cn1c(=O)ccc2cc(S(=O)(=O)N3CCCC3)ccc21)NCc1ccc(Cl)cc1
54 | 3% | Cc1ccc(CNC(=O)CS(=O)(=O)Cc2nc(-c3ccccc3C)oc2C)cc1
55 | 1% | O=C(CC1C(=O)OCCN1Cc1ccccc1)Nc1cccc(C(F)(F)F)c1 (stereo unspecified)
56 | -2% | COc1cccc(NC(=O)CSc2nc(-c3ccccc3)nc3c2Cc2cc(Cl)ccc2O3)c1
57 | 2% | Cc1cc(C)c2nc(N3CCCC(C(=O)NCc4ccccc4F)C3)sc2c1 (stereo unspecified)
58 | 9% | COc1ccc(-c2nsc(NC(=O)c3oc4cc(C)c(C)cc4c3C)n2)cc1
59 | -33% | O=S(=O)(Nc1ccc(-c2ccc(N3CCCC3)nn2)cc1)c1cc(F)ccc1F
60 | 4% | CCOC(=O)C1CCN(CC(=O)Nc2cc(C)c3c(=O)oc4ccccc4c3n2)CC1
61 | 0% | Cc1cc(C)cc(NC(=O)Cn2c(=O)n(-c3cc(C)cc(C)c3)c(=O)c3oc4ccccc4c32)c1
62 | 10% | Cc1nc2scc(C)n2c(=O)c1S(=O)(=O)Nc1cccc(C(F)(F)F)c1
63 | -2% | COc1ccc(N2CCN(C(=O)NCc3noc4ccccc34)CC2)cc1
64 | -2% | Cc1ccc(NC(=O)N2CCN(Cc3nc4ccc(C)cc4o3)CC2)cc1
65 | 30% | COc1cccc(C(=O)N2c3ccc(C)cc3C(C)(c3ccccc3)CC2(C)C)c1 (stereo unspecified)
66 | -3% | Cc1cn2c(=O)cc(COC(=O)c3ccc(NC(=O)c4ccccc4C)cc3)nc2s1
67 | -1% | Cc1ccc(Cl)cc1N1CCN(C(=O)c2cccn2-c2nnc(N3CCCCC3)s2)CC1
68 | 3% | COc1ccccc1CNC(=O)CCCCn1c(=O)c2ccccc2n(CC(=O)Nc2cc(Cl)ccc2C)c1=O
69 | -39% | O=C(CSc1nc2ncccc2o1)Nc1cccc(C(F)(F)F)c1
70 | -1% | Cc1ccc(S(=O)(=O)c2[nH]c(-c3ccccc3)nc2SCC(N)=O)cc1
71 | 3% | O=C(CCn1c(=O)c2cccn2c2ccc(F)cc21)NCc1ccccc1F
72 | -3% | O=C(Cn1ncc2c3ccccc3n(Cc3ccc(F)cc3)c2c1=O)NCc1cccs1
73 | 4% | CC(CCc1ccccc1)NC(=O)Cn1c(=O)nc(-c2ccccc2)c2cc(Cl)ccc21 (stereo unspecified)
74 | 0% | Cc1nc2ccn(Cc3cccnc3)c(=O)c2cc1C(=O)N1CCN(c2ccccc2F)CC1
75 | 26% | COc1ccc(Br)cc1Cn1nnc(C(=O)Nc2ccc(C)cc2C)c1N
76 | -23% | Cc1cc2c(cc1C)NC(CC(=O)Nc1cccc(Cl)c1)C(=O)N2 (stereo unspecified)
77 | 16% | CCc1ccc(C2C(C(=O)Nc3ccccc3OC)=C(C)Nc3c(C(=O)Nc4ccc(C)cc4)cnn32)cc1 (stereo unspecified)
78 | 19% | Cc1ccc(NC(=O)CN2CCN(S(=O)(=O)c3ccc(C(C)C)cc3)CC2)cc1F
79 | 1% | COc1cccc(CNC(=O)CNS(=O)(=O)c2ccc3nc(C)sc3c2)c1
80 | -2% | CCCOc1ccc(CNC(=O)C(NS(=O)(=O)c2cccs2)C(C)C)cc1 (stereo unspecified)
81 | -6% | Cc1cccc(-n2c(=O)c3ccccc3n(Cc3ccccc3)c2=O)c1
82 | -3% | CCOC(=O)N1CCc2c(sc3c2c(=O)n(Cc2ccccc2)c(=O)n3Cc2cc(C)ccc2C)C1
83 | 2% | Cc1cc(C)c(NC(=O)CSc2nc(=O)n(Cc3cccnc3)c3c2CCC3)c(C)c1
84 | -16% | CN(C)S(=O)(=O)c1ccc(C(=O)N2CC(=O)Nc3ccc(Br)cc3C2c2ccc(F)cc2)cc1 (stereo unspecified)
85 | 3% | N#C/C(=C\c1cccc(F)c1)c1nc(-c2cc3c(ccc4ccccc43)oc2=O)cs1
86 | -8% | COC(=O)c1c(C)sc(-c2c(-c3ccc4c(c3)OCCO4)[nH]c3c2c(=O)n(C)c(=O)n3C)c1O
87 | 6% | Fc1ccc(Nc2nc(SCc3cccc(Cl)c3)nc3ccccc23)cc1
88 | -1% | Cc1cc(NC(=O)C2CCCN(S(=O)(=O)c3cccc4nsnc34)C2)ccc1Br (stereo unspecified)
89 | -23% | COc1cccc(CNc2cc(C)nc3nc(-c4ccc(C)cc4)nn23)c1
90 | -3% | COc1cccc(NC(=O)CN(C)S(=O)(=O)c2ccc3nc(C)sc3c2)c1
91 | 0% | Cc1cc(C)cc(N2C(=O)N(CC(=O)c3ccc(Br)cc3)c3ccccc3S2(=O)=O)c1
92 | -52% | COCCc1nn2c(=O)cc(COC(=O)c3cccs3)nc2s1
